GLA inh pH 4.5 = blocks human alpha-galactosidase A at pH 4.5. activity change, negative = inhibition, % at 105 µM. 230,000 tested, under 10 active. purified enzyme, 4-MU-alpha-Gal fluorescence, pH 4.5. P06280; inconclusive = small, poorly fitted or top-dose-only inhibition, or a rising curve; inactive = flat fitted curve, though single readings scatter; no compound was filed as active;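 note: 0% = full activity with enzyme and -100% = basal without enzyme; dose as in the result columns while the protocol names 77 µM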
Target sequence (P06280 whole entry, looked up): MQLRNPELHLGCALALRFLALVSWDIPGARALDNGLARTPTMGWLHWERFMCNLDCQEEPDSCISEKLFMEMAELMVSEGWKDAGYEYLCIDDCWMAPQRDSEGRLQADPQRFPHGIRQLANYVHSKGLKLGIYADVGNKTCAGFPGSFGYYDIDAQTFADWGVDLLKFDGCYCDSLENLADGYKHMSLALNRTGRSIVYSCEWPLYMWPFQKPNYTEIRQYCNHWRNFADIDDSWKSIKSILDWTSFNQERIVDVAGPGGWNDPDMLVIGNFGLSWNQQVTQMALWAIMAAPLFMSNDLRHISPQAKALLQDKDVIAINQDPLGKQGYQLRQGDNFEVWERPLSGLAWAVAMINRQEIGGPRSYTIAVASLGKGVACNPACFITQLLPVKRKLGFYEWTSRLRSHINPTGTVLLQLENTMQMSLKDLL
Rango-impB inh = inhibitors of Rango-importin beta complex formation. 340,000 tested, 0.031% active. Rango CFP/YFP FRET sensor + importin beta, 45 min. Potency, µM (top dose mostly 92.2 µM), inactives show at the top dose inhibition of complex formation; active = rising FRET ratio curve, often small or poorly fitted; inconclusive = mostly compound fluorescence or quenching in the first reads; inactive = flat curves in all reads;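 note: potency is the fitted concentration of half-maximal effect; 0% = DMSO wells and 100% = buffer wells lacking importin beta; nearly all actives have a fitted effect of over 15% in size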
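Inhibition scored from the CFP 486 nm/YFP 530 nm FRET ratio 45 min after adding 0.125 microM importin beta to 50 nM Rango biosensor preincubated 5 min with compound (room temperature, PBS with DTT, Tween-20, BSA). No-importin wells as positive control.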
miR-21 FLuc = raises the signal of a miR-21 reporter. HeLa miR-21 FLuc reporter, luciferase, 48 h. Potency, µM (series often up to 38.3 µM), inactives show top-dose reporter change, positive = more light. 340,000 tested, under 10 active. AID 2288; active = well fitted rising curve with a large enough effect; inconclusive = small, poorly fitted or top-dose-only effect; inactive = no such curve, though single readings can be large or run the other way;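 note: % of control where 0% means no effect; miR-21 action dims this reporter so a rising signal means less miR-21 action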
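HeLa cells endogenously expressing miR-21, stably carrying CMV-driven firefly luciferase with a downstream miR-21 binding site, 2000 cells/well. Titrations up to approximately 40 uM, 48 hours; luciferase luminescence read.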
Rango release inh = prevents RanGTP from dissociating the Rango-importin beta complex. Potency, µM (top dose mostly 46.1 µM), for the others: top-dose activity change, negative = inhibition. AID 540253. O95149+P62826. Biochemical FRET Rango-importin beta, RanGTP-induced dissociation. 340,000 tested, 0.071% active; active means falling FRET ratio curve, often poorly fitted, with flat reads before Ran was added; inconclusive means other falling curves, or compound fluorescence or quenching; inactive means flat or rising ratio curve;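 note: potency is the fitted concentration of half-maximal effect; % of control where 0% means no effect; nearly all actives have a fitted effect of over 45% in size; -100% = wells without RanGTP and RCC1; the record marks most hits as doubtful in a second field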
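Quantitative HTS using a FRET biosensor: 0.1 uM Rango, 0.25 uM importin beta, 0.6 uM Ran, 2 mM GTP, 0.2 uM RCC1 final, PBS with DTT, Tween-20 and BSA. Post-read taken 45 min after Ran addition.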
An asterisk follows results filed as active; ? = inconclusive; . = not tested or not shown; & = joins results of further samples. The list is partial (hit frequency here may not be typical).

SMILES	GLA inh pH 4.5	Rango-impB inh	miR-21 FLuc	Rango release inh
COc1cc(CNC(=O)C2CCC(=O)N(C3CCCCCC3)C2)cc(OC)c1 (centres undefined)	.	0.0%	-4%	-5%
CCn1c(=O)c(C(=O)CN(C)Cc2ccc(F)cc2)c(N)n(Cc2ccccc2)c1=O	-7	-2.8%	0%	-1%
COc1ccccc1N(C)S(=O)(=O)c1ccc(Cl)c(C(=O)Nc2ccncc2)c1	.	3.9%	.	-11%
O=C(/C=C/c1ccccc1Cl)Nc1ccccc1	-4	2.2%	-16%	3%
Cc1nc(N2CCN(C(c3ccccc3)c3ccccc3)CC2)nc2c1C(=O)CCC2	4	.	-1%	.
Cc1ccc(C(=O)Nc2ccc3c(c2)OCO3)o1	0	-1.2%	-38%	8%
CSc1ccc(/C=N/NC(=O)CN2CCN(Cc3ccccc3Cl)CC2)cc1	-11	0.6%	1%	3%
N#Cc1cc(NCC2CCCO2)c([N+](=O)[O-])cc1C#N (centres undefined)	0	-4.3%	0%	20%
Cc1ccccc1CN1C[C@@H]2C[C@@H](c3cn[nH]c3-c3ccccc3)N3CCC[C@@]23C1=O	-6	-4.3%	3%	8%
Cc1ccc(C)c(S(=O)(=O)NCc2ccc(C(=O)N3CCN(c4ccccc4)CC3)cc2)c1	.	2.4%	13%	4%
Cc1cc(NC(=O)C2C3C(=O)N(Cc4ccc(Cl)cc4)C(C(=O)NC4CCCCC4)C34C=CC2(C)O4)no1 (centres undefined)	7	1.2%	-2%	1%
COCCCNC(=O)c1c(N)n(-c2ccccc2)c2nc3ccccc3nc12	?	?	5%	?
CCCc1nc2ccccc2c(=O)n1N	-1	1.5%	-1%	-12%
CCCCOC(=O)Nc1ccc(S(=O)(=O)Nc2ncccn2)cc1	6	1.7%	-10%	21%
Cc1nnc(SCC(=O)NC2CCCCCC2)n1C(C)C	.	3.0%	-1%	4%
COc1ccc(NC(=O)CCCn2c(=O)c3sccc3n(Cc3ccccc3)c2=O)cc1	1	3.4%	-17%	3%
CN(CC1COc2ccccc2O1)C(=O)c1cc(COc2c(F)cccc2F)on1 (centres undefined)	.	1.3%	-10%	0%
CCC(C)(C)NC(=O)C(OC(=O)c1ccco1)c1ccccc1F (centres undefined)	.	-1.5%	-1%	-10%
Cc1ccc(N(CC(=O)Nc2cc(C)cc(C)c2)S(=O)(=O)c2cccc3nonc23)cc1	-10	-4.7%	1%&-1%	-11%
COc1ccc(C2=Nn3c(nnc3-c3ccco3)SC2)cc1	3	-1.0%	15%	-7%
CCc1ccc(/C=C2\CN(CC)Cc3c2nc2ccccc2c3C(=O)O)cc1	-15	?	-7%	?
O=c1c(Cl)c(O)c2cccc3c4ccccc4n1c23	5	1.7%	-1%	-12%
Cc1ccccc1N1CC(C(=O)Nc2ccc(S(=O)(=O)N3CCCC3)cc2)CC1=O (centres undefined)	.	2.7%	.	-1%
Cc1ccc(C(C(=O)NC2CCCCC2)N(Cc2ccco2)C(=O)Cc2c[nH]c3ccccc23)o1 (centres undefined)	-13	?	20%	-8%
COc1ccc(-c2nc(CSCC(=O)NCc3ccc4c(c3)OCO4)c(C)o2)cc1	-2	-2.3%	28%	-4%
FC(F)(F)c1cccc(NC(=S)N2CCN(c3cccc(C(F)(F)F)c3)CC2)c1	5	3.2%	1%	16%
CC(=O)CSc1nc(N)c(C#N)c(-c2cccs2)c1C#N	0	-1.8%	24%	-5%
COc1ccc(CNC(=O)CN(Cc2ccc(Cl)cc2)S(=O)(=O)c2ccccc2)cc1	-2	-1.3%	16%	-7%
O=C(NNC(=S)NC1CCCCC1)c1sc2ccccc2c1Cl	5	-0.9%	-11%	4%
Fc1ccc(-c2onc3ccc(C4OCCO4)cc23)cc1	-12	1.1%	-7%	4%
O=C(Cc1ccccc1)Nc1nnc(-c2cccc([N+](=O)[O-])c2)s1	12	3.1%	1%	-2%
CCNc1ccc(S(=O)(=O)N2CCCCC2)cn1	.	1.2%	.	?
COc1cccc(CNC(=O)c2cccc(S(=O)(=O)N3CCN(c4ccc(F)cc4)CC3)c2)c1	.	3.9%	.	-7%
Nc1[nH]n(-c2c(Cl)cc(Cl)cc2Cl)c(=O)c1N=Nc1ccc(S(=O)(=O)Nc2ncccn2)cc1	.	3.5%	.	?
COc1ccccc1C(=O)C1CCCN(C(=O)Nc2ccccc2F)C1 (centres undefined)	5	-0.8%	-41%	14%
Cc1cc(C)c(OCC(=O)OCC(=O)N2c3ccccc3CC2C)c(C)c1 (centres undefined)	.	-0.5%	.	-8%
CCCNc1nc(C)cc(-c2cc(-c3ccccc3)on2)n1	-3	-2.2%	-18%	-6%
COC(=O)Nc1ccc(S(=O)(=O)Nc2ccccc2F)cc1	-17	2.6%	-6%	-7%
S=c1nc(-c2ccccc2)n(CCCN2CCOCC2)c2c1CCCC2	5	0.8%	-3%	-3%
COc1ccc(-c2[nH]ncc2CN(C)Cc2cccnc2)c(F)c1	1	-1.1%	-1%	1%
CC(=O)N1CCN=C1SCc1cccc(F)c1	.	2.1%	-6%	-8%
O=C1NC(O)(c2ccccc2)Oc2ccccc21 (centres undefined)	.	11%	.	11%
CCCC(=O)Nc1ccc(C(N)=O)cc1	0	-1.3%	0%	-14%
CCSc1nnc(-c2cc(Br)ccc2N=Cc2c(C)[nH]n(-c3ccccc3)c2=O)c(=O)[nH]1	-13	0.4%	-1%	-4%
COc1ccccc1OCC(=O)N/N=C1\CCc2ccccc21	2	-1.7%	-57%	5%
O=C(NCc1ccc(F)cc1)c1ccc(CNc2c(N3CCOCC3)c(=O)c2=O)cc1	4	4.3%	-1%	-4%
COc1cccc(N2CC(C(=O)Nc3nnc(SCC(=O)NCC4CCCO4)s3)CC2=O)c1 (centres undefined)	.	-2.5%	1%	-7%
CC1OC(Oc2ccc3ccc(=O)oc3c2-c2c(O)ccc3cc(Oc4ccc5ccc(=O)oc5c4)c(=O)oc23)C(O)C(O)C1O (centres undefined)	-6	?	-3%	-22%
CCC(C)[C@H](NC(=O)c1cc2cc(Cl)ccc2n1C)C(=O)N1CCC(C(=O)O)CC1 (some centres undefined)	.	4.1%	-13%	11%
C#CC(=O)N(c1cccc(OC)c1)C(C(=O)NC1CCCC1)c1cccs1 (centres undefined)	4	-1.7%	?	0%
CSCC[C@@H](C(=O)NCc1cccs1)N1Cc2ccccc2C1=O	2	-3.6%	-1%	-7%
Nn1c(SCC(=O)Nc2ccc(N3CCOCC3)cc2)nnc1-c1ccccc1F	.	-2.1%	.	2%
O=C(CN1C2=NCCN2c2ccccc21)c1ccc(Br)s1	3	2.9%	-3%	3%
Cc1c(C(=O)N2CCOCC2)sc(NC(=O)c2ccccc2F)c1C#N	.	?	-1%	?
O=C(NCCS(=O)(=O)N1CCN(c2ccccc2)CC1)c1ccc2c(c1)OCO2	.	-3.4%	.	22%
Cc1ccc(-c2noc(CSc3nnc(-c4ccncc4)n3-c3ccc(F)cc3)n2)cc1	-2	-1.8%	1%	8%
COc1cccc(C(=O)NC(=S)Nc2ccc(N3CCCC3)cc2)c1	-2	-2.6%	-16%	12%
Cc1ccc(NC(=O)CCn2cccc2)cc1F	-1	-1.6%	-16%	0%
CCS(=O)(=O)N1CCN(C(=O)COc2ccc(-c3ccccc3)cc2)CC1	2	0.0%	0%	42%
CCOC(=O)N1CCN(C2=Nc3cccc4cccc2c34)CC1	1	?	-7%	?

(continued)
SMILES	GLA inh pH 4.5	Rango-impB inh	miR-21 FLuc	Rango release inh
COc1ccc(-c2cn[nH]c2-c2ccc(O)cc2O)cc1OC	.	-3.1%	8%	-8%
CC(CCc1ccccc1)NC(=O)C1CCN(C(=O)c2sccc2-n2cccc2)CC1 (centres undefined)	-8	-2.6%	2%	1%
O=C(Cn1cc2c(n1)CCCC2)NCCc1ccccc1	-1	-0.8%	-13%	-18%
COc1ccc(NC2CCCN(C(=O)CCCN3CCCCC3=O)C2)cc1 (centres undefined)	.	0.3%	-3%	1%
CC1(C)OC(=O)C(C(c2ccccc2)C(C#N)C(N)=O)=C(O)O1 (centres undefined)	-4	2.8%	-3%	-9%
OC[C@H]1O[C@@H](n2cnc3c(NCc4ccco4)ncnc32)[C@H](O)[C@@H]1O	-7&1	-4.4%	.	-7%
O=C(O)c1c[nH]c2ccc(S(=O)(=O)N3CCOCC3)cc12	-2	3.7%	-17%	0%
CCC[C@@H]1C[C@@H](C(=O)N[C@@H](C2O[C@H](SC)[C@H](O)[C@@H](O)[C@H]2O)[C@H](C)Cl)N(C)C1 (some centres undefined)	-12	-2.4%	-3%	1%
O=C(CCN1C(=O)C2CCCCC2C1=O)N1CCN(S(=O)(=O)c2c(F)cccc2F)CC1 (centres undefined)	.	-0.9%	.	14%
CCc1ccc([C@@H]2C[C@H]3CN(Cc4ccccc4OC)C(=O)[C@]34CCCN24)cc1	-6	-2.0%	0%	0%
Cc1ccc(Cl)c(OC(=O)c2nn(C(C)C)c(=O)c3ccccc23)c1	8	-2.4%	0%	-16%
COc1ccccc1CN1CCNC(=O)C1CC(=O)NCc1c(C)n[nH]c1C (centres undefined)	-9	-3.6%	-5%	-5%
Cc1cc(=O)oc2cc(OC(C)C(=O)NCC3CCCO3)ccc12 (centres undefined)	-12	4.3%	-8%	19%
COC(=O)c1nc2n(n1)C(c1ccc(OC)c(OC)c1OC)C1=C(CCCC1=O)N2 (centres undefined)	-12	-0.2%	-4%	-3%
CC(C)(C)c1ccc(NC(=O)c2cc[n+]([O-])cc2)cc1	.	12%	-12%	7%
Cc1[nH]n(-c2ccc([N+](=O)[O-])cc2)c(=O)c1C=NCCc1ccc(S(N)(=O)=O)cc1	-5	?	1%	-20%
O=C(NCc1ccco1)C(=O)NCC1OCCN1S(=O)(=O)c1ccc(Cl)cc1 (centres undefined)	3	-1.4%	-4%	1%
COc1ccccc1/C=N/NC(=O)c1ccc(C)nc1	.	0.7%	-3%	-10%
O=C(COC(=O)c1ccc(-c2ccc([N+](=O)[O-])cc2)o1)NC(=O)NC1CCCCC1	-2	3.7%	-7%	8%
Cn1c(=O)c2[nH]c(=S)n(Cc3ccccc3)c2n(C)c1=O	.	5.1%	.	-8%
CCOC(=O)C(CC)(CC)C(=O)/C=C/c1ccc(Br)cc1	-4	0.8%	19%	6%
Cc1cc(C)cc(OCC(=O)OCc2cc([N+](=O)[O-])cc3c2OCOC3)c1	.	5.1%	.	-18%
CCOC(=O)c1c(NC(=O)c2ccco2)n(C2CCCCC2)c2nc3ccccc3nc12	8	?	18%	?
CCn1c(NC(=O)C2CCCCC2)nc2ccccc21	-1	4.7%	-13%	2%

Filtered by structure: the compounds so far containing an NH in an aromatic ring.
SMILES	GLA inh pH 4.5	Rango-impB inh	miR-21 FLuc	Rango release inh
Cc1ccccc1CN1C[C@@H]2C[C@@H](c3cn[nH]c3-c3ccccc3)N3CCC[C@@]23C1=O	-6	-4.3%	3%	8%
Cc1ccc(C(C(=O)NC2CCCCC2)N(Cc2ccco2)C(=O)Cc2c[nH]c3ccccc23)o1 (centres undefined)	-13	?	20%	-8%
Nc1[nH]n(-c2c(Cl)cc(Cl)cc2Cl)c(=O)c1N=Nc1ccc(S(=O)(=O)Nc2ncccn2)cc1	.	3.5%	.	?
COc1ccc(-c2[nH]ncc2CN(C)Cc2cccnc2)c(F)c1	1	-1.1%	-1%	1%
CCSc1nnc(-c2cc(Br)ccc2N=Cc2c(C)[nH]n(-c3ccccc3)c2=O)c(=O)[nH]1	-13	0.4%	-1%	-4%
COc1ccc(-c2cn[nH]c2-c2ccc(O)cc2O)cc1OC	.	-3.1%	8%	-8%
O=C(O)c1c[nH]c2ccc(S(=O)(=O)N3CCOCC3)cc12	-2	3.7%	-17%	0%
COc1ccccc1CN1CCNC(=O)C1CC(=O)NCc1c(C)n[nH]c1C (centres undefined)	-9	-3.6%	-5%	-5%
Cc1[nH]n(-c2ccc([N+](=O)[O-])cc2)c(=O)c1C=NCCc1ccc(S(N)(=O)=O)cc1	-5	?	1%	-20%
Cn1c(=O)c2[nH]c(=S)n(Cc3ccccc3)c2n(C)c1=O	.	5.1%	.	-8%

High-throughput results from PubChem BioAssay.
